Compound activity (PubChem)
Six1-Eya2 inh: blocks human Six1 binding to Eya2. activity change, % (test concentration not listed). hit rate 0.56% among 360,000. AlphaScreen GST-Six1/His-Eya2 binding, biochemical; active compounds read low; control for the full effect not named in the record. Q15475+O00167. AID 651725; in the data active = activity change below about -65%; inconclusive = about -30% to -65%; inactive = above about -30%; also: % is scaled to controls: 0 for no effect and ±100 for the full control effect
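Compounds are tested against tagged Six1 and Eya2 proteins bridged by glutathione donor and nickel acceptor beads; after a one-hour incubation at 37 °C without light, AlphaScreen emission is recorded.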
TRPML1 agonist: agonists of human TRPML1 channel; TRPML1-expressing cells, Ca2+ dye fluorescence, FDSS; host cell line not named in the record; reference of the full effect not given here; activation, % (no concentration beside the values); hit rate 0.12% among 410,000; AID 624414; in the data active = activation above about 50%; inconclusive = about 30% to 50%; inactive = below about 30%; also: 0% is about no effect; the text of the record puts the active cut at 80%
Target sequence (Q9GZU1 whole entry, looked up): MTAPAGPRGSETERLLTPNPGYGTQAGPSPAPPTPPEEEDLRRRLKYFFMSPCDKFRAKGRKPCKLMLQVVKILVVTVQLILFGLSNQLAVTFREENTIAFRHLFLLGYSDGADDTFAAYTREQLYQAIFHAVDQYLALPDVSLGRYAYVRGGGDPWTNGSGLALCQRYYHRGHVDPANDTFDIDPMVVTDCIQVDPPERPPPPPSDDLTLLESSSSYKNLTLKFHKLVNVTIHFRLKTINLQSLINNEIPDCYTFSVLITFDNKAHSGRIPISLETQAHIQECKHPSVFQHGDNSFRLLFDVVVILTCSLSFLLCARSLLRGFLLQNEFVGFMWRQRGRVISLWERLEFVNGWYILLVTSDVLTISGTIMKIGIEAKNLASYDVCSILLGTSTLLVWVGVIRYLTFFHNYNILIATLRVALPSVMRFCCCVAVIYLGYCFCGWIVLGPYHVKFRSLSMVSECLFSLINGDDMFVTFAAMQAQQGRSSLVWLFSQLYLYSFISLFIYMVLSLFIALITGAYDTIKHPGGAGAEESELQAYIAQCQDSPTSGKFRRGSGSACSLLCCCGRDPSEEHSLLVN
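Kinetic FDSS Ca2+ read in Tet-induced TRPML1-DL cells (ABD Ca8 dye plus quencher, 45-90 min RT loading): baseline, then compound, then 110 s agonist window; EC80 agonist 54-4 at 4uM final added afterwards for a 110 s antagonist window.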
D2 PAM: human D2 receptor positive allosteric modulation; potentiation, % (test concentration not listed); AID 624464; DiscoveRx D2 beta-arrestin cells, luminescence, 90 min; 100% = 57 uM dopamine signal; P14416; hit rate 0.23% among 360,000; active = potentiation of 50% or more; inconclusive = 30% to 50%; inactive = 30% or less;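 also: compound concentration not given in the record; tested on top of an EC20 dose of dopamine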
Target sequence (P14416 whole entry, looked up): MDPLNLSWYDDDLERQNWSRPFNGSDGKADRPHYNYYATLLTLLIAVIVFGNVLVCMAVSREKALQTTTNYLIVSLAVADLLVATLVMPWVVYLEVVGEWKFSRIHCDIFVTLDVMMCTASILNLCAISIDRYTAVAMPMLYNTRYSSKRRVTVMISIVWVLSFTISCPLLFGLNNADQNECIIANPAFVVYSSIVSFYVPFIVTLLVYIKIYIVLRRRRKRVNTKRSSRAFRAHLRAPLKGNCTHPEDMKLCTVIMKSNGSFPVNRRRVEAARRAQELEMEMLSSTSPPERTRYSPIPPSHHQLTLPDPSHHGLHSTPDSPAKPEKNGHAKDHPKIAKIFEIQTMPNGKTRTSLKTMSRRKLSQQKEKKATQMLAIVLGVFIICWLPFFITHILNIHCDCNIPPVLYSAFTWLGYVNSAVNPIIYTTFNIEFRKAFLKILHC
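PathHunter D2 cells, attached overnight at 37 deg C, received compound in DMSO plus dopamine at EC20 (50 nM final) for 90 min at 37 deg C. Beta-arrestin recruitment was read as luminescence after 1 h with detection reagent at ambient temperature.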
PINK1 expr mod: PINK1 expression modulation; Potency, µM (series often up to 76.6 µM), for the others: at the top dose activation (PINK1 increase), actives largely listed as activators; PINK1 immunofluorescence, high-content cytometry, 24 h; AID 624263; hit rate 0.2% among 410,000; active = well fitted activation curve with a large enough effect; inconclusive = small, poorly fitted or top-dose-only effect; inactive = flat fitted curve, though single readings scatter; cell line not stated here;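 also: potency is read from the fitted curve at half-maximal effect; % of control where 0% means no effect; nearly all actives have a fitted effect of over 65% in size; a mitochondrial uncoupler was the plate control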
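PINK1 protein level read as immunofluorescence by microplate cytometer in a fixed, stained stable cell line after 24 h exposure to five compound concentrations, with CCCP as control.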
TRPML1 blocker: human mucolipin-1 channel inhibition; Q9GZU1; TRPML1-inducible cells, Ca2+ dye fluorescence, FDSS; active compounds read low; inhibition of EC80 agonist-evoked calcium signal; activity change, negative = inhibition, % (concentration not given with the values); hit rate 0.02% among 390,000; AID 624415; in the data active means activity change below about -50%; inconclusive means about -30% to -50%; inactive means above about -30%;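 also: stimulus is agonist 54-4 at its EC80 concentration; % is scaled to controls: 0 for no effect and ±100 for the full control effect; the text of the record puts the active cut at -80%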
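Calcium fluorescence in TRPML1-DL cells induced overnight with Tet: a 110 s read after compound pin addition, then a 110 s antagonist read after challenge with 54-4 at 4 uM final (EC80).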
D2 agonist: agonists of human D2 dopamine receptor (beta-arrestin). hit rate 0.084% among 360,000. activation, % (no concentration beside the values). P14416. DiscoveRx PathHunter D2 beta-arrestin, luminescence, 90 min; 100% = 57 uM dopamine signal; in the data active = activation above about 40%; inconclusive = about 15% to 40%; inactive = below about 15%; also: compound concentration not given in the record; the text of the record calls up to 30% inactive
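DiscoveRx PathHunter D2 beta-arrestin cells (2,100/well) attached overnight, then compound-stimulated 90 min at 37 C in HBSS/10 mM HEPES/0.1% Tween-20 buffer; beta-galactosidase complementation read by luminescence after 1 h at ambient temperature. Dopamine 57 uM final (EC100) as control.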
An asterisk follows results filed as active; ? = inconclusive; nt = not tested or not shown; [ ] = another dose, or the depositor's remark.

SMILES	Six1-Eya2 inh	TRPML1 agonist	D2 PAM	PINK1 expr mod	TRPML1 blocker	D2 agonist
CC(C)(C)OC(=O)[C@H](Cc1ccccc1)NC(=O)c1[nH]cnc1C(=O)Nc1cccc(Cl)c1	2	1.4	-6	5.0%	-14	-4.0
CCc1cccc(NS(=O)(=O)c2ccc3c(c2)n(C)c(=O)c(=O)n3C)c1	nt	-0.3	nt	1.2%	13	nt
Cc1cc(C)c2nc(NC(=O)c3ccc4c(=O)n5c(nc4c3)CCCCC5)sc2c1	-4	0.5	-3	6.0%	-17	-7.5
O=C(CCC(=O)c1cccs1)NCc1cccc(C(F)(F)F)c1	4	2.0	-21	2.3%	-10	2.7
CCOC(=O)C1=NOC(COc2ccccc2C=O)C1 (configuration not stated)	0	1.0	-7	2.4%	15	0.2
Nc1ccccc1C(=O)NN=Cc1cccc([N+](=O)[O-])c1	8	-1.0	-2	0.8%	nt	-5.7
Cc1noc(C)c1COc1ccc(C(=O)OCC(=O)NCCN2C(=O)CSC2=O)cc1	4	-0.1	-7	1.6%	-19	-3.4
CCN1CCN(c2cc(C)c3cc(NC(=O)c4ccc(Br)o4)ccc3n2)CC1	-4	3.7	-16	-1.1%	-11	-1.2
Nc1nonc1-c1noc(CCCOc2ccc(Cl)cc2Cl)n1	0	-0.2	4	4.3%	0	0.1
CC(=O)N1c2ccc(S(=O)(=O)NC(CC(=O)O)c3ccc(Br)cc3)cc2CC1C (configuration not stated)	0	0.4	4	0.1%	-10	3.6
Cc1ccc(-n2nc(C(=O)N3CCN(c4ccccc4F)CC3)c(=O)n(C)c2=O)cc1	nt	-0.6	nt	-0.3%	-10	nt
CCOC(=O)C1CCN(C(c2cccc(OC)c2)c2sc3nc(C)nn3c2O)CC1 (configuration not stated)	-24	0.1	-11	1.1%	-2	-3.4
CCN(CC(=O)Nc1ccc(NC(C)=O)cc1)C(=O)CN1C(=O)NC2(CCCC2)C1=O	-3	0.0	18	-0.2%	-4	-2.1
CC1C(=O)Nc2ccc(S(=O)(=O)NCc3ccc(Cl)cc3)cc2NC1=O (configuration not stated)	6	0.9	1	-0.3%	-2	-3.1
O=C(CNc1cccc([N+](=O)[O-])c1)N/N=C/c1ccc(F)cc1	-2	-0.9	-18	1.2%	-5	-4.3
Cc1c(C(=O)NCCC#N)sc(=O)n1Cc1ccc(C(=O)N(C)C)cc1	2	-0.2	-6	2.2%	nt	-2.5
CC[C@@]1(C(=O)OC)N[C@H](CN(C)C(=O)COc2ccccc2)[C@@H]2C(=O)N(Cc3ccccc3)C(=O)[C@@H]21	-1	1.3	-1	0.1%	2	1.5
Cc1cccc(N2C(=O)N(Cc3cccc(C#N)c3)c3ccccc3S2(=O)=O)c1	nt	-0.3	nt	0.2%	4	nt
CC(=O)COc1cc2c(-c3cc4ccccc4o3)cc(=O)oc2cc1C	26	-1.2	0	2.6%	100	-4.7
Cc1cc(C)c(Nc2ncccc2C(=O)O)c(C)c1	-1	0.9	-5	0.6%	-4	-0.4
Cc1cc(C)c(C(=O)C(C)OC(=O)C2=COCCO2)cc1C (configuration not stated)	2	0.4	-5	1.8%	32	-3.1
Cc1cccc(NC(=O)c2cc(NC(=O)c3ccco3)ccc2N2CCCCC2)c1	2	0.5	2	?	-1	3.0
O=C(NCc1ccc(OC(F)(F)F)cc1)c1ccc2c(c1)S(=O)(=O)c1ccccc1C2=O	-27	1.0	-8	0.7%	4	1.4
CCOC(=O)c1cnn(-c2nc(-c3ccc(C)cc3)cs2)c1C(F)(F)F	13	1.2	-6	12%	6	-2.9
NS(=O)(=O)c1ccc(CNC(=O)c2ccc(C(=O)c3ccccc3)cc2)cc1	-7	-0.7	-10	0.1%	10	10.0
CC1Cc2ccccc2N1S(=O)(=O)c1nnc(NC(=O)c2cccc(F)c2)s1 (configuration not stated)	nt	-0.3	nt	1.5%	8	nt
COc1ccc(NC(=O)CN(C)S(=O)(=O)c2ccc(Br)s2)cc1	-3	0.3	-10	1.0%	2	-0.3
CNS(=O)(=O)c1ccc2c(c1)NC(=O)C1CCCN21 (configuration not stated)	7	0.6	-21	-1.6%	1	-3.8
COc1ccc(CC(NC(C)=O)C(=O)NC2CCN(C(=O)Nc3ccccc3Cl)CC2)cc1OC (configuration not stated)	3	-0.4	-9	-3.9%	39	-3.9
Cc1c(C(=O)NCc2cccc(Cl)c2)sc(=O)n1Cc1cccc(F)c1	4	4.8	-1	1.0%	nt	-3.6
C[C@H]1CN([C@@H](C)CO)S(=O)(=O)c2ccc(/C=C/c3ccccc3)cc2O[C@H]1CN(C)C(=O)NC1CCCCC1	-10	-0.4	-8	1.1%	?	4.5
Cc1cc(=O)n(-c2ccc3ccccc3n2)[nH]1	-26	0.1	-5	-0.2%[38.3 µM]	41	-2.4
O=C(Cn1c(=O)oc2cc(S(=O)(=O)N3CCCCC3)ccc21)N1CCc2ccccc2C1	2	0.2	-5	7.2%	12	-4.1
CC(=O)Nc1cccc(C(=O)NCc2ccc3c(c2)CCN3C(C)=O)c1	nt	0.6	nt	-1.5%	22	nt
Cc1ccc(-n2ncc(Cl)c2C(=O)NCc2ccccc2)cc1	19	2.5	-8	-1.8%	54	-1.1
CC1CN(CC(O)COc2ccc(C(=O)c3ccccc3)cc2)CC(C)O1 (configuration not stated)	0	0.1	5	-0.7%	25	-1.0
O=c1[nH]c2ccccc2nc1Cc1ccccc1	8	1.3	6	0.1%	-3	-1.6
COC(=O)c1ccccc1NC(=O)c1ccc2nc(Cc3ccccc3)oc2c1	nt	1.6	nt	2.6%	32	nt
C=CCNc1ncnc2c1ncn2[C@H]1CN(Cc2cc(OC)c(OC)c(OC)c2)C[C@@H](CO)O1	2	-0.7	-6	1.5%	nt	-3.4
CN(Cc1ccc(Cl)cc1)C(=O)COC(=O)CSc1ccc([N+](=O)[O-])cc1	-6	3.6	-31	-0.9%	11	-0.6
CCC(C)c1ccccc1O (configuration not stated)	4	-0.7	-3	2.7%	12	-3.4
CCOC(=O)N1CCN(C(=O)c2ccc(S(=O)(=O)Nc3ccccc3)cc2)CC1	9	1.0	6	-0.2%	-11	-0.3
Cc1cccc2cc(COC(=O)c3ccccc3)c(=O)[nH]c12	-1	1.7	-8	10%	-8	-2.5
Oc1c(C(c2cccs2)N2CCC3(CC2)OCCO3)sc2ncnn12 (configuration not stated)	-3	-0.5	-7	0.5%	-3	-5.0
Cc1cc(-c2ccc(S(=O)(=O)Nc3cccc(C(F)(F)F)c3)s2)on1	nt	0.7	nt	18%	-8	nt

An excerpt from above in order of molar mass, ascending:
SMILES	Six1-Eya2 inh	TRPML1 agonist	D2 PAM	PINK1 expr mod	TRPML1 blocker	D2 agonist
Cc1cc(=O)n(-c2ccc3ccccc3n2)[nH]1	-26	0.1	-5	-0.2%[38.3 µM]	41	-2.4
CC(=O)Nc1cccc(C(=O)NCc2ccc3c(c2)CCN3C(C)=O)c1	nt	0.6	nt	-1.5%	22	nt
CC1CN(CC(O)COc2ccc(C(=O)c3ccccc3)cc2)CC(C)O1 (configuration not stated)	0	0.1	5	-0.7%	25	-1.0
Cc1cc(-c2ccc(S(=O)(=O)Nc3cccc(C(F)(F)F)c3)s2)on1	nt	0.7	nt	18%	-8	nt
CN(Cc1ccc(Cl)cc1)C(=O)COC(=O)CSc1ccc([N+](=O)[O-])cc1	-6	3.6	-31	-0.9%	11	-0.6
O=C(Cn1c(=O)oc2cc(S(=O)(=O)N3CCCCC3)ccc21)N1CCc2ccccc2C1	2	0.2	-5	7.2%	12	-4.1

Next part.
SMILES	Six1-Eya2 inh	TRPML1 agonist	D2 PAM	PINK1 expr mod	TRPML1 blocker	D2 agonist
CCc1cnc2c(c1SCC(=O)Nc1ccc(OC)c(OC)c1)c(=O)n(C)c(=O)n2C	nt	-0.5	nt	-0.4%	18	nt
CC(Oc1ccccc1)C(=O)NN1Cc2ccccc2C1=N (configuration not stated)	-2	-0.1	-6	-0.7%	5	-0.3
Cc1ccc(S(=O)(=O)NC(=O)COc2ccccc2C)c(C)c1	8	-0.1	11	0.5%	-8	-1.4
Cc1ccc(SCCC(=O)OCC(=O)Nc2ncc(Cl)cc2Cl)cc1	2	2.9	-6	18%[38.3 µM]	10	-0.9
Cc1ccc2occ(CN3CCN(c4ccccc4)CC3)c(=O)c2c1	-6	0.4	-2	-0.4%[38.3 µM]	33	13
CC(C)Oc1ccc(C(=O)NCCNC(=O)c2ccco2)cc1	2	0.9	-1	1.9%	17	0.1
Cc1cc(=O)oc2cc(OCCc3ccccc3)ccc12	10	3.8	3	0.4%	25	7.3
CCCCNC(=O)O[C@@H]1C[C@H]2CCC(=O)N3CC[C@@H](C1)[C@@H]23	2	-0.8	-10	0.6%	8	-0.8
COc1ccc(CNC(=O)CCCc2nnc3n(C(C)C)c(=O)c4sccc4n23)cc1	nt	2.4	nt	-1.1%	14	nt
Brc1ccc(-c2csc3[n+]2CCCCC3)cc1	-4	-0.8	-8	0.8%	23	-3.5
NC(=O)CSc1nc2ccccc2n1-c1ccccc1	3	-0.3	-13	nt	0	-1.3
CN(CC(=O)Nc1ccccc1Cl)C(=O)COC(=O)c1nc(Cl)ccc1Cl	0	-1.1	-22	2.7%	-6	-3.7
CC(Oc1ccc(Cl)cc1Cl)C(=O)Nc1ccc2oc(-c3ccncc3)nc2c1 (configuration not stated)	6	0.0	-10	6.5%	8	-0.2
COc1cccc(NC(=O)Nc2ccccc2C(N)=O)c1	1	0.0	-7	0.5%	52	-5.4
COc1ccc(CCNC(=O)CCc2c(C)nc3c(-c4ccc(F)cc4)c(C)nn3c2C)cc1OC	nt	-0.3	nt	2.5%	5	nt
CCOC(=O)c1oc2ccccc2c1NC(=O)COc1ccc(F)cc1	7	2.9	-7	?	-5	0.9
CCn1c2ccccc2c2n[nH]c(=S)nc21	?	1.4	-15	-0.8%	-11	-2.2
COc1cc(/C=N\NC(=O)c2ccc(-c3ccccc3)cc2)cc(Br)c1O	-11	0.3	-45	0.3%	8	-4.8
CC1(C)CC(=O)C=C(NCCO)C1	5	-1.1	3	-1.1%	14	-1.6
Cc1ccc(S(=O)(=O)Oc2ccccc2/C=N/NC(=O)c2nn(C)cc2[N+](=O)[O-])cc1	-3	-0.1	-7	8.9%	-17	-2.5
C/C(=N\NC(=O)c1cccc(S(=O)(=O)Nc2ccc(C)cc2C)c1)c1ccncc1	-7	0.0	-20	3.9%	17	4.3
CCOC(=O)c1nnn(-c2nonc2N)c1-c1cccc2ccccc12	-10	3.2	2	4.6%	17	-1.8
COc1cc(/C=C/C(=O)OCC(=O)NC(=O)NC2CCCCC2C)ccc1OC(F)F (configuration not stated)	0	2.7	-11	8.4%	-12	-4.4
O=C1COc2ccc(C(=O)COC(=O)c3nc(Cl)ccc3Cl)cc2N1	-3	0.0	-4	4.9%	1	-2.8
Cc1ccc(CCNC(=O)CN(C)S(=O)(=O)c2cnc[nH]2)cc1	11	-0.5	-10	-0.9%	12	-0.8
CCOC(=O)c1c(C)[nH]c(C(=O)COc2ccc3c(c2)OCO3)c1C	-2	0.7	-6	3.7%	10	0.8
COc1ccccc1C1C2=C(N=c3s/c(=C/c4cccc(OCC(=O)O)c4)c(=O)n31)c1ccccc1CC2 (configuration not stated)	-8	1.9	-4	-1.4%	-27	3.3
Cc1cc2c(ncn2Cc2ccccc2)c(NS(C)(=O)=O)c1C	-4	1.2	-10	-3.2%	13	-1.1
